RanGTP-Impb inh = inhibitors of RanGTP-importin-beta interaction, primary screen, biochemical, FRET, CFP-Ran, YFP-importin-beta, homogeneous | cell-free CFP-Ran/YFP-importin-beta FRET ratio | inhibition, % (concentration not given with the values) | actives 1.1% (n = 300,000) | AID 2216;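 active = most replicates above 15%; inconclusive = exactly half above 15%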;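 also: 0% = DMSO wells and 100% = Ran loaded with GDP instead of GTP; wells of about 40 µL received 100 nL stock; the first replicate is given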
Beta2AR agonist = human beta-2 adrenergic receptor agonism by FAP; P07550; Am2.2-beta2AR cells, FAP receptor internalization, flow cytometry; reference of the scale not given here; response, % (concentration not given with the values); actives 0.43% (n = 340,000); AID 504454;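 active = response above a set limit, near 3 SD of response in nonfluorescent compounds, cut at about 42% in these data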;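 also: stock transfer was 100 nL into about 11 µL; a reference agonist was the positive control; negative values mostly stem from fluorescent compounds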
Target sequence (P07550 whole entry, looked up): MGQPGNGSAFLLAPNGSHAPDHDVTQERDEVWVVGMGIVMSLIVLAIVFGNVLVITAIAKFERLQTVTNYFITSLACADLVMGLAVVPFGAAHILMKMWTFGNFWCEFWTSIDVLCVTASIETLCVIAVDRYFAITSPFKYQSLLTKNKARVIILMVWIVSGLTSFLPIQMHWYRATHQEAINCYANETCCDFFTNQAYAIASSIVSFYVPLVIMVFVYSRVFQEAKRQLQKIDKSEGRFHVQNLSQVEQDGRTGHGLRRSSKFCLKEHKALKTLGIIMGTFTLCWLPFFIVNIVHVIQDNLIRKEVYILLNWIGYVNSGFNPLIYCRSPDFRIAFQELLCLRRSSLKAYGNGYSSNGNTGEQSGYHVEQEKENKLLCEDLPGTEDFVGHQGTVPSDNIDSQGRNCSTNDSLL
Vif A3G = HIV-1 Vif–A3G interaction blockers – biochemical, TR-FRET, GST-Vif 1-94, biotin-A3G peptide, dose response retest, primary screen (AID 1117319); TR-FRET GST-Vif / biotin-A3G peptide binding; higher % means a stronger effect; test concentration not given here; strong numbers were not always called active; actives 0.57% (n = 260,000); one-dose inhibition, %; IC50 in µM for titrated hits;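 active = above the screen mean plus three standard deviations and confirmed in dose response; inconclusive = results disagree or hit not tested in dose response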;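 also: Vif residues 1-94 fused to GST binding biotinylated APOBEC3G peptide 110-148; 0% = full assay without inhibitor and 100% = GST in place of GST-Vif; retest series ran down from 100 µM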
LANA-H2B inh = blocks KSHV LANA binding to histone H2A/H2B; cell-free LANA-H2A/H2B peptide, fluorescence polarization; inhibition, % (no concentration beside the values); AID 2629; actives 0.6% (n = 320,000); Q9QR71; in the data active = inhibition mostly above about 10%, no sharp cut-off; inactive = mostly below about 6.7%;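 also: stock transfer was 7.5 nL into about 10 µL; 0% = median of vehicle wells and 100% = median of positive control wells; one replicate is shown; the record names a cut of 25% in any replicate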
HNF4A DNA FP = change in binding of human HNF4 alpha to DNA; activity change, % at 10 µM; actives 0.3% (n = 360,000); P41235; HNF4a-FITC DNA binding, fluorescence polarization, 1 h; in the data active = activity change above about 30%, passing the limit was not always enough;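 also: controls were the assay level and a saturating level of protein; the project sought stronger binding though the title names inhibitors; some compounds called inactive have numbers as strong as hits; positive values seem to mean higher polarization but the record does not say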
Target sequence (P41235 whole entry, looked up): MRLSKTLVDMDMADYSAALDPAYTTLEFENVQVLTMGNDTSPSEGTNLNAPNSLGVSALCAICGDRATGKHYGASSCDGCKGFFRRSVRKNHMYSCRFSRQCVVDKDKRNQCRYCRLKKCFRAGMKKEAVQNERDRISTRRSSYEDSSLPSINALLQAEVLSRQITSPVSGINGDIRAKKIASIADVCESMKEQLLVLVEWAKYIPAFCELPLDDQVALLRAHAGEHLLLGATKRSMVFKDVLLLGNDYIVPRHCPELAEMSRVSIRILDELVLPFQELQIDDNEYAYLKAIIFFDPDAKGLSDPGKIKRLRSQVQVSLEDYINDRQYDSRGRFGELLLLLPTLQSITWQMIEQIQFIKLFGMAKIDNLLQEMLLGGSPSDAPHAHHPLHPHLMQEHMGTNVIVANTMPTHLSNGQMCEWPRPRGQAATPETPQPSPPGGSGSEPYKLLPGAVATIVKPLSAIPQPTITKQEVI
ALR H2O2 inh = blocks human ALR sulfhydryl oxidase activity. P55789. purified ALR, DTT oxidation, H2O2 HRP-luminol luminescence. inhibition, % (test concentration not listed). actives 3.8% (n = 290,000);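 active = mean and each replicate at 75% or more; inconclusive = only one of the two met; inactive = neither met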;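 also: stock transfer was 7.5 nL into about 7.5 µL; 0% = neutral wells and 100% = wells with inactivated enzyme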
Target sequence (P55789 whole entry, looked up): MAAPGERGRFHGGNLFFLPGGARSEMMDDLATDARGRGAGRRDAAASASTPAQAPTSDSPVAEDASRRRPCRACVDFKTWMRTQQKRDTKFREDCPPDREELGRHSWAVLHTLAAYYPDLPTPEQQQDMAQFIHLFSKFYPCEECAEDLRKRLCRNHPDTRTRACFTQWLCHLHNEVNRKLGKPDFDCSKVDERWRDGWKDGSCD
Calb FLC = C. albicans growth modulation with fluconazole | actives 0.57% (n = 300,000) | growth inhibition, % (concentration not given with the values) | C. albicans CaCi-2 (fluconazole-resistant clinical isolate) + fluconazole, Alamar Blue growth, 48 h;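 active = most replicates above 75%; inconclusive = exactly half above 75%; inactive = most below 75%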;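 also: all wells also contain fluconazole at 8 µg/ml as a sub-toxic cotreatment; 0% = median of DMSO wells and 100% = median of geldanamycin control wells; wells of about 8 µL received 7.5 nL stock; the first replicate is given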
* hit, by the source's call; ? = inconclusive; . = not tested or not shown.

SMILES	RanGTP-Impb inh	Beta2AR agonist	Vif A3G	LANA-H2B inh	HNF4A DNA FP	ALR H2O2 inh	Calb FLC
COc1ccc(NC(=O)CN2CCN(c3ccccn3)CC2)cc1Cl	6.3	-4	-6%	3.7	0.1	-14	-7
COc1cc(OC)nc(NC(=O)CSc2nnc(-c3ccccc3)n2C2CCCCC2)n1	0.8	97*	-13%	6.5	-0.4	-5	4
O=C(N/N=C/c1ccncc1)c1cnccn1	?	-1	4%	-1.8	5.1	0	14
Fc1ccc(-n2c(=S)[nH]c3cccnc32)cc1	3.3	-4	.	0.1	5.2	-4	-7
COc1ccc(CC(=O)Nc2nnc(-c3cccc([N+](=O)[O-])c3)s2)cc1	4.4	9	22%	2.4	7.2	-1	2
C=C(C)c1cccc(C(C)(C)NC(=O)N2CCN(c3ccc(OC)cc3)CC2)c1	8.4	1	.	-5.3	1.4	-21	2
O=C(NCCCO)/C(=C/c1ccc(-c2cccc([N+](=O)[O-])c2)o1)NC(=O)c1ccccc1	3.3	-14	12%	-2.3	-2.2	.	12
CCOc1ccc(OCCC(=O)N(CC)CC(=O)Nc2ccccc2C(F)(F)F)cc1	4.5	1	-11%	0.9	-4.0	-12	-3
CCOc1cc(C2C3=C(CCCC3=O)NC3=C2C(=O)CCC3)cc(Cl)c1O	0.9	-4	19%	3.3	1.8	-4	8
O=C(CN1C(=O)C2C3C=CC(C4CC34)C2C1=O)Nc1cnc2ccccc2c1 (centres undefined)	6.8	-2	-5%	-0.8	-2.1	-18	?
NC(=O)CN1CCOCCOCCN(CC(N)=O)CCOCCOCC1	1.5	1	0%	3.5	-0.3	-11	-4
CCOC(=O)C1=C(CS(=O)(=O)c2ccc(C)cc2)NC(=O)NC1c1cc(OC)c(OC)c(OC)c1 (centres undefined)	0.8	-3	.	-6.4	0.0	-29	2
COC(=O)Cc1cnc(NC(=O)C2C3CCC(C3)C2C(=O)O)s1 (centres undefined)	-3.6	0	-8%	2.4	2.9	-7	3
O=C(OCc1ccccc1)N1CCC2CC1c1c(Cl)cccc12 (centres undefined)	.	3	-5%	.	-0.8	.	.
CC1(C)Cc2c(sc3ncn(N)c(=N)c23)CO1	-0.2	-1	2%	-5.0	-0.5	0	-17
Cc1ccc(SCC(=O)NNC(=O)CCS(=O)(=O)c2ccc(C)cc2)cc1	.	0	-5%	3.0	1.6	-10	.
CCCn1nc(NC(=O)C2CCCO2)c2cc3cccc(C)c3nc21 (centres undefined)	68*	8	10%	-1.7	-0.7	.	-9
O=C(C(Cl)Cl)N1CC2CCC(CC2)C1	.	-1	-3%	.	0.3	.	.
Cc1cccc(NC(=O)C2CCCN2C(=O)NC2CCCCC2)c1 (centres undefined)	-2.2	1	16%	3.5	0.8	0	17
CN(c1ccccc1)c1nc(N)c([N+](=O)[O-])c(Nc2cccc(F)c2)n1	-1.9	10	-2%	7.0	-0.4	0	2
COc1ccc(NC(=S)Nc2ccccc2)cn1	1.5	-3	18%	1.6	-0.6	-234	-6
CS(=O)(=O)c1cccc(NC(=O)CSc2nnc3n2CCCCC3)c1	.	-5	1%	5.4	0.7	-3	.
Cc1ccc(NC(=O)COC(=O)c2ccnn2C)cc1	-2.9	-2	17%	3.8	-3.8	-11	-8
COC(=O)N/N=C(\CCC(=O)O)c1cccs1	-2.5	-3	.	-6.8	4.5	.	0
CCCn1c(=N)c(S(=O)(=O)c2ccc(F)cc2)cc2c(=O)n3ccccc3nc21	176*	-1	.	-1.1	1.9	2	6
COC(=O)C1=C(O)C(C(=O)OC)C(c2ccc(C)cc2)C(C#N)(C#N)C1c1ccc(C)cc1 (centres undefined)	?	-1	5%	-2.2	-0.4	-10	-8
COC(=O)[C@@]1(Cc2ccc(OC)cc2)[C@H]2c3cc(C(=O)N4CCCC4)n(CCn4cc([N+](=O)[O-])nc4C)c3C[C@H]2CN1C(=O)c1ccccc1	-1.0	24	-5%	-2.5	-7.2	-8	12
O=C(c1cc(-c2ccccc2)on1)N1CCc2ccccc2C1	-1.5	11	14%	-2.3	-1.8	37	-14
O=C1CCCc2[nH]nc(-c3cccnc3)c21	-0.7	-5	-1%	-2.5	3.6	-6	-16
Cc1ccc(C)c(NC(=O)Cn2c([N+](=O)[O-])cnc2C)c1	7.5	-5	2%	-2.4	-0.7	-17	-1
COC(=O)[C@H](Cc1ccccc1)NC(=O)NCC1CCCO1 (some centres undefined)	-0.6	10	17%	1.1	4.7	-8	-5
C[C@H](CO)N1C[C@H](C)[C@@H](CN(C)S(C)(=O)=O)Oc2c(NC(=O)C3CC3)cccc2C1=O	.	-8	.	9.0	2.2	0	.
CCOc1ccc(S(=O)(=O)Nc2ccc(OC)nc2)cc1	-5.6	-1	.	-1.6	3.8	-1	-2
O=C(c1ccc(Cl)c(S(=O)(=O)N2CCOCC2)c1)N1CCN(c2ccccc2F)CC1	4.8	-6	.	14	-0.2	-4	1
C/C(=N\NC(=O)C1COc2ccccc2O1)c1ccc(N2CCOCC2)cc1 (centres undefined)	-1.4	2	.	-1.0	1.1	37	-22
O=C(Cc1cccc2ccccc12)NC(NC(=S)Nc1ccccc1Cl)C(Cl)(Cl)Cl (centres undefined)	5.9	7	5%	.	2.9	.	13
COC(=O)c1sccc1-n1cccc1C(=O)C(=O)N1CCCCC1	0.1	-4	-1%	-4.4	-6.3	-5	1
c1cnc(Oc2ccc3oc4ccccc4c3c2)nc1	-3.1	-3	-3%	-5.4	-5.2	20	34
COc1ccc(NC2c3ccccc3C(=O)N2c2cccnc2)cc1 (centres undefined)	-0.6	-3	0%	-3.1	-0.8	88*	4
Cc1ccc(S(=O)(=O)Cc2ccc(C(=O)NC3CCCC3)o2)cc1	0.1	6	.	0.1	-2.5	3	1
Cc1cc(Br)cc2cn[nH]c12	-1.2	0	0%	-3.0	2.2	-8	-3
Cc1cccc(N(CC(=O)NC(C)(C)C)C(=O)CNC(=O)c2cccs2)c1C	-2.6	-15	?	0.0	4.0	4	0
COc1ccc(N2CC(=O)N(c3ccc(OC)c(OC)c3)CC2=O)cc1OC	-4.0	-3	-3%	-1.9	-0.4	.	0
CC1CC1C(=O)OCc1cc(=O)n2cc(Br)ccc2n1 (centres undefined)	-6.6	-16	2%	-4.7	1.7	3	-7
Fc1c(F)c(F)c(N/N=C/c2c[nH]c3ccccc23)c(F)c1F	0.3	9	.	-2.6	2.2	12	0
O=C(COC(=O)CNC(=O)c1ccc(Cl)cc1Cl)NC1CCCCCCC1	-0.9	0	-3%	1.4	-0.5	-4	-2
Cc1ccc2oc(=O)n(Cc3ccc(F)cc3)c2c1	-1.2	-1	-4%	-0.4	-0.8	-1	-8
COc1ccc(CCN2CCCn3c2nc2c3c(=O)n(Cc3ccccc3F)c(=O)n2C)cc1OC	1.6	7	-4%	2.9	-1.1	3	3
COCC(=O)N1CCC(Oc2ccc(C(=O)N3C[C@@H]4CCC[C@H]3C4)cc2)CC1	-5.0	-4	.	.	-5.6	.	1
COc1ncccc1C(=O)NC1CCCc2c1cnn2-c1ccc(C)c(C)c1 (centres undefined)	-2.2	2	.	3.5	-1.1	5	-2
COC(=O)C(CCCCNC(=O)OCc1ccccc1)NC(=O)CN (centres undefined)	0.7	9	7%	-1.3	-0.4	4	22
COCCNC(=O)c1ccc(CS(=O)(=O)c2ccccc2OC)o1	4.2	0	-1%	1.7	-0.2	-10	4
COC(=O)c1ccc(N2C(=O)C3C4C=CC(CC4)C3C2=O)cc1 (centres undefined)	5.9	3	.	-1.6	2.6	-2	18
COc1ccc(C(=O)NC(=S)N2CCCCC2c2cccnc2)cc1OC (centres undefined)	4.0	-1	.	-0.1	-5.9	1	-1
CC(C)NC(=O)N(C)C[C@H]1Oc2ccc(NC(=O)CCN3CCOCC3)cc2C(=O)N([C@H](C)CO)C[C@@H]1C	.	2	-5%	.	3.0	.	.
COc1cccc(N2CCN(C(=O)c3cn(Cc4ccccc4)nc3-c3cccnc3)CC2)c1	.	-5	-8%	.	4.0	41	.
Cc1ccc(OCCSc2nc(N)cc(N)n2)cc1	-2.0	3	.	-1.8	-1.2	-5	11
CCN(C(=O)c1cccc(NC(=O)c2ccccc2)c1)C1CCCCC1	1.3	-5	.	-3.0	0.2	1	12
O=C(CSc1nc2c(cnn2-c2ccc(F)cc2)c(=O)[nH]1)N1CCCc2ccccc21	-3.0	-5	7%	6.8	-0.2	-8	20
O=C(CN1CCN(Cc2cccc(F)c2)CC1)Nc1ccccc1F	3.3	-2	-3%	-1.3	-1.6	-2	6
Next structures.
SMILES	RanGTP-Impb inh	Beta2AR agonist	Vif A3G	LANA-H2B inh	HNF4A DNA FP	ALR H2O2 inh	Calb FLC
Cc1nn(-c2ccc(F)cc2)c(N)c1C1(O)C(=O)Nc2ccccc21 (centres undefined)	3.4	2	5%	5.8	1.4	0	16
COCCCN1C(=O)C(=O)/C(=C(/O)c2ccc(S(=O)(=O)N3CCOCC3)cc2)C1c1ccc(OC)cc1 (centres undefined)	3.8	1	.	-2.8	0.7	-14	-3
Cc1nn(-c2ccccc2)c(N)c1C(O)(CC(=O)C(F)(F)F)C(F)(F)F (centres undefined)	3.2	1	8%	0.9	3.7	-7	12
CCOC(=O)c1cc(C(=O)NC(C)c2ccccc2)c(C)[nH]c1=O (centres undefined)	-1.7	4	4%	4.0	-1.3	-2	23
NCCCC[C@@H]1NC(=O)c2cc([N+](=O)[O-])cc(I)c2SC[C@@H](C(N)=O)NC(=O)[C@H](CCC(N)=O)NC1=O	0.7	-6	23%	-7.1	-3.2	-32	-17
COc1ccc2c(c1)c(C(=O)CN1CCN(c3ccccc3)CC1)c(C)n2C	-3.5	.	3%	0.4	.	0	2
Cc1cc(-c2nnc(CCC(=O)NC(c3ccccc3)c3ccccc3)o2)no1	7.8	-3	.	-1.5	0.9	0	-4
CCC(C(=O)NC(C)c1ccccc1)C(=O)NC(C)c1ccccc1 (centres undefined)	-3.9	-6	0%	3.6	-5.6	.	-6
CCNC(=S)N/N=C1\C(=O)c2cccc3cccc1c23	3.0	9	-2%	2.4	8.7	.	9
CCOC(=O)c1csc(NC(=O)c2ccc(OC)c(OC)c2)n1	-0.7	-9	-30%	5.6	2.4	1	3
O=C(N/N=C/c1ccccn1)c1ccc(Br)cc1	3.5	7	31%	-3.0	2.1	-6	-14
O=C(c1ccc2nc[nH]c2c1)N1CCN(c2cccc(Cl)c2)CC1	-2.8	16	5%	-3.5	2.1	24	1
CN(Cc1ccc(Cl)cc1Cl)C(=O)c1cc(=O)c2ccccc2o1	-2.0	-13	.	1.0	-1.7	.	-7
OCCC1CN(Cc2cccc(F)c2F)CCN1CCc1ccccc1 (centres undefined)	2.6	-6	.	-3.9	-3.5	.	-4
CC(=O)Nc1ccc(NC(=O)CSc2nc3[nH]ncc3c(=O)n2-c2ccccc2)cc1	2.3	1	.	1.7	1.6	2	5
O=C(COC(=O)CCSc1ccc(Cl)cc1)Nc1ccc(F)cc1	-2.5	21	.	-4.9	0.8	-4	-1

Profiles, quoted from the list. Screens in order: RanGTP-Impb inh, Beta2AR agonist, Vif A3G, LANA-H2B inh, HNF4A DNA FP, ALR H2O2 inh, Calb FLC
Profile of Cc1ccc(SCC(=O)NNC(=O)CCS(=O)(=O)c2ccc(C)cc2)cc1 = ., 0, -5%, 3.0, 1.6, -10, .
Profile of O=C(c1ccc(Cl)c(S(=O)(=O)N2CCOCC2)c1)N1CCN(c2ccccc2F)CC1 = 4.8, -6, ., 14, -0.2, -4, 1

Three entries from above, ordered by the value under HNF4A DNA FP, lowest first:
SMILES,RanGTP-Impb inh,Beta2AR agonist,Vif A3G,LANA-H2B inh,HNF4A DNA FP,ALR H2O2 inh
Cc1ccc(NC(=O)COC(=O)c2ccnn2C)cc1,-2.9,-2,17%,3.8,-3.8,-11
CCCn1nc(NC(=O)C2CCCO2)c2cc3cccc(C)c3nc21 (centres undefined),68*,8,10%,-1.7,-0.7,.
COc1ccc(N2CC(=O)N(c3ccc(OC)c(OC)c3)CC2=O)cc1OC,-4.0,-3,-3%,-1.9,-0.4,.

Assay outcomes deposited in PubChem by several laboratories.
